# AmpC inh no det: Promiscuous and Specific Inhibitors of AmpC Beta-Lactamase (assay without detergent) | Potency, µM (doses to about 28.7 µM), for the others: at the highest dose activity change, negative = inhibition | actives 1.8% (n = 71,000) | P00811 | AmpC nitrocefin hydrolysis, absorbance 480 nm, no detergent; potencies from a single point are estimates; active = falling curve, for most hits resting on a single point; inconclusive = weak or doubtful change; inactive = flat or rising curve; note: % of control where 0% means no effect; about half of the hits show no inhibition at the top dose; a quarter of the inactives give rising signals
# Target sequence (P00811 whole entry, looked up): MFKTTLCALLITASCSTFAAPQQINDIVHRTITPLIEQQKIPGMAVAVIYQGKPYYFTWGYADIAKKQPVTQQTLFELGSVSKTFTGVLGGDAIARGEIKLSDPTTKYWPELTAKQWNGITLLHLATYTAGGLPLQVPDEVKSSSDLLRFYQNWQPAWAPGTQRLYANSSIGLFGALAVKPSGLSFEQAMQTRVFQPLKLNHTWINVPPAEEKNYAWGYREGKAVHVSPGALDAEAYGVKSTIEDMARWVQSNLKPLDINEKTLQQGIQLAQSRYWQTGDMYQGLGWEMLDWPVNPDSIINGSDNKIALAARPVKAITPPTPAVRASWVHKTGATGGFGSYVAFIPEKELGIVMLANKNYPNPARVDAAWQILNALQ
#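 AmpC in 20 mM phosphate buffer pH 7.0 was preincubated 15 min at room temperature with compounds. Nitrocefin (800 uM stock) was then added and hydrolysis followed at 480 nm every 20 s for 4 min.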
# Starred values were filed as active, the others as inactive; ? = inconclusive; & = joins results of further samples; [ ] = remark or other dose. Potency is the fitted concentration of half-maximal effect.
SMILES,AmpC inh no det
CCOc1cc([C@H]2[C@@H]3CCCC[C@]3(O)CCN2CC(=O)NCc2ccco2)ccc1O,32%
Cc1ccccc1-c1ccc(Nc2ccc(C(=O)N3CCOCC3)cc2)nn1,33%
Cc1cccc(OCCSc2nnc(-c3ccoc3C)n2C)c1,37%
CC(C)CCn1cnc2c1c(=O)n(C)c(=O)n2C,2%
O=C(N1CCOCC1)N1CCN(c2ccccc2F)CC1,4µM*[single pt active]
CSCCc1nc(SCC(=O)Nc2nnc(C)s2)[nH]c1C,7%
CC1CCCN(C(=O)Cc2ccc(F)cc2)C1 (stereo unspecified),1%
O=C(c1ccco1)N1CCN(C(=O)c2cc3sccc3n2Cc2ccccc2)CC1,119%
Cc1cc(C)c2cc(CN(CCO)C(c3nnnn3Cc3ccc(F)cc3)C(C)C)c(=O)[nH]c2c1 (stereo unspecified),84%
COc1ccc2nc(NC(=O)C3CCN(S(=O)(=O)c4cccc5nsnc45)CC3)sc2c1,7%
N#CC1=C(N)S[C@H](C(=O)C23CC4CC(CC(C4)C2)C3)[C@H]1c1ccncc1,15%
CCn1c(CNC(=O)c2cccc(C)c2)nnc1SCC(=O)Nc1cccc(OC)c1,44%
CC(C)c1ccccc1S(=O)c1ccccc1C(C)(C)O (stereo unspecified),2%[5.75 µM]
CCCCC(=O)Nc1ccc2c3c(cccc13)C(=O)N2CC,21%
NC(=O)C1CCN(CCC(=O)Nc2cccc(Cl)c2)CC1,-2%
CCOc1ccc2nc(SCC#N)c(C#N)cc2c1,9%
COc1ccc(C(c2nnnn2C2CCCC2)N2CCC(C)CC2)c(OC)c1 (stereo unspecified),75%
COc1ccccc1NC(=O)C1=C(C)NC(=O)NC1c1cccc(OC)c1OC (stereo unspecified),22%
O=C(c1nc2ncccn2n1)N1CCN(c2ccc(F)cc2)CC1,-5%
COc1cc(-c2nnc(CSc3nc4ccccc4s3)o2)cc(OC)c1OC,111%
CCN(CC)C(=O)c1ccc(CS(=O)(=O)c2ccc(OC)cc2)o1,4µM*[single pt active]
Cc1ccccc1-c1nnc(-c2ccc(Br)cc2)o1,-8%
COc1cccc(C(=O)Nc2cccc(-c3nc4ncccc4o3)c2C)c1,18%
CCN(CC)S(=O)(=O)c1ccc(NC(=O)Cn2c(=O)sc3ccccc32)cc1,?
CCCCC1CCC(/C(N)=N/O)CC1 (stereo unspecified),12%
CCCCCCNC(=O)C(C(=O)OCC)C1CCCCC1 (stereo unspecified),0%
Cc1cc2cc(CCNC(=O)C(C)C)c(=O)[nH]c2cc1C,0%
COC(=O)c1[nH]c2cccc(Cl)c2c1NC(=O)CN(C)C1CCCCC1,76%
c1ccc(-c2nc(CSc3nnc(-c4cccs4)o3)cs2)cc1,-13%
Cn1c(=O)c2c(nc(N3CCCC3)n2CC(O)CO)n(C)c1=O (stereo unspecified),-4%

# 6 entries already listed, sorted by count of non-hydrogen atoms, low to high:
SMILES,AmpC inh no det
CCOc1ccc2nc(SCC#N)c(C#N)cc2c1,9%
Cn1c(=O)c2c(nc(N3CCCC3)n2CC(O)CO)n(C)c1=O (stereo unspecified),-4%
O=C(c1nc2ncccn2n1)N1CCN(c2ccc(F)cc2)CC1,-5%
COC(=O)c1[nH]c2cccc(Cl)c2c1NC(=O)CN(C)C1CCCCC1,76%
COc1cccc(C(=O)Nc2cccc(-c3nc4ncccc4o3)c2C)c1,18%
COc1ccccc1NC(=O)C1=C(C)NC(=O)NC1c1cccc(OC)c1OC (stereo unspecified),22%

# Next section.
SMILES,AmpC inh no det
O=C(c1ccc(Br)o1)N1CCN(c2ccccn2)CC1,1%
CCCCCn1c(CN2CCCCC2C)nc2c1c(=O)n(C)c(=O)n2C (stereo unspecified),56%
CC(C)C1C2=C(CC(C)(C)CC2=O)ON1c1ccccc1 (stereo unspecified),16%
O=C(Nn1nnnc1Nc1ccccc1)C12CC3CC(CC(C3)C1)C2,-19%
COc1ccc(C(=O)N/N=C2/C(=O)c3c(C)cc(C)cc3CC2(C)C)cc1,19%[5.75 µM]
CCCCNC(=O)Nc1cc(C(=O)OC)ccc1C,1%
O=C(CCCCCN1C(=O)CCC1=O)NCc1ccccc1,-3%
CCOC(=O)c1cnc2nc(NCc3ccc(OC)c(OC)c3)[nH]n2c1=O,-10%
N#CCCn1c(SCC(=O)c2c[nH]c3ccccc23)nc2ccccc21,?
OCCNc1cc(-n2nc(-c3ccccc3)cc2-c2ccccc2)ncn1,128%
CCN(Cc1cc2ccccc2[nH]c1=O)C(=O)C1CCCCC1,23%
CCn1ncc(C2=NOC(C(=O)Nc3c(C)nn(Cc4ccc(F)cc4)c3C)C2)c1C (stereo unspecified),48%
CCNS(=O)(=O)c1ccc(S(=O)(=O)N(Cc2ccccn2)C2CCCCC2)cc1,32%
COc1cc(-c2ccc(N)c(OC)c2)ccc1N,-5%
Fc1ccccc1N1CCN(Cc2nc(-c3ccc(Cl)cc3Cl)no2)CC1,13%
Cc1nc2c(c(=O)n1Cc1ccccc1Cl)c1nc3ccccc3nc1n2Cc1ccco1,6%
CCCCn1c(SCC(=O)Nc2nnc(C)s2)nnc1-c1ccoc1C,16%
O=C(Cn1nc(C(F)(F)F)c2c1CCCC2)Nc1ccc2c(c1)OCO2,-10%
Cc1ccc(-c2nn(C)c(=O)c3ccccc23)cc1S(=O)(=O)NCCN1CCOCC1,65%
CCn1c(=N)c(C(N)=O)cc2c(=O)n3cccc(C)c3nc21,-10%
O=C(C1CCCN(S(=O)(=O)c2cccs2)C1)N1CCc2ccccc2C1 (stereo unspecified),41%
CC(C)OCCCNS(=O)(=O)c1ccc2c(c1)oc(=O)n2C,-7%
O=C(C1CCN(S(=O)(=O)c2cccc3nsnc23)CC1)N1CCc2ccccc21,4%
Cc1nn(CCc2nn[nH]n2)c2nc(C(F)(F)F)cc(C(F)(F)F)c12,-1%
Cc1nc2cc(NC(=O)N3CCC(c4ccccc4)C3)ccc2n1C (stereo unspecified),32%
COc1ccc(CCC(=O)NCc2ccco2)cc1,4%
O=S(=O)(c1ccc(Oc2ccccc2)cc1)N1CCOCC1,20%
c1ccc(-c2nn3nnnc3c3ccccc23)cc1,-7%
COc1ccccc1-c1cc(C(=O)NC(C)c2ccccc2)no1 (stereo unspecified),6%
COc1ccc(S(=O)(=O)Nc2cc(C)c(O)cc2C(C)C)cc1,-21%
CCCCN(C)Cc1c(O)ccc2c(-c3ccccc3)cc(=O)oc12,15%
Nc1ccn([C@@H]2O[C@@H](CO)[C@@H](O)[C@H]2O)c(=O)n1,0%
CCOC(=O)c1sc(NC(=O)c2c(C)nn(Cc3ccccc3)c2C)cc1C,50%
COc1ccc(OC)c(Nc2cc(-c3ccccc3)nc(N)n2)c1,34%
NC[C@H](CP(=O)(O)O)c1ccc(Cl)cc1,-5%&-2%
COC(=O)C1=C(N)Oc2cc(C)n(CCc3ccccc3)c(=O)c2C1c1cccnc1 (stereo unspecified),70%
CN1C(=O)CC(P(=O)(c2ccccc2)c2ccccc2)N(C)C1=O (stereo unspecified),2%
O=c1[nH]c2ccccc2nc1Cc1ccccc1,-16%
Nc1c(Cl)cc(Cl)cc1Cl,-12%
O=C(O)CCc1ccc(-c2cccs2)n1Cc1ccco1,-1%
Cc1cc(C)c2c(n1)nn1c(N3CCN(c4ccccc4C)CC3)cc(C)nc21,50%
CCOc1ccc(C2CC(c3ccc(F)cc3)n3ncnc3N2)cc1 (stereo unspecified),4µM*[single pt active]
CCOc1ccc(OCC)c(NC(=O)C(NS(=O)(=O)c2ccc3c(c2)oc(=O)n3C)C(C)C)c1 (stereo unspecified),43%
Cc1nn2c3ccccc3nc2c2ccccc12,96%
O=C1c2ccccc2C(=O)N1CCCc1nc(-c2cccnc2)no1,21%

# Filtered by structure, those above containing a thiophene ring, fused or not (5)
SMILES,AmpC inh no det
O=C(c1ccco1)N1CCN(C(=O)c2cc3sccc3n2Cc2ccccc2)CC1,119%
c1ccc(-c2nc(CSc3nnc(-c4cccs4)o3)cs2)cc1,-13%
O=C(C1CCCN(S(=O)(=O)c2cccs2)C1)N1CCc2ccccc2C1 (stereo unspecified),41%
CCOC(=O)c1sc(NC(=O)c2c(C)nn(Cc3ccccc3)c2C)cc1C,50%
O=C(O)CCc1ccc(-c2cccs2)n1Cc1ccco1,-1%

# Carrying on.
SMILES,AmpC inh no det
Nc1nonc1C(=O)NCCNCc1ccccc1OCc1ccccc1F,1%
CC1=CCC2C(=O)N(c3nc4ccccc4n3C)C(=O)C2C1 (stereo unspecified),4%
O=C(CSc1nnc(Cc2ccccc2)n1-c1cccc(Cl)c1)N1CCOCC1,92%
CCCCCOC(=O)c1[nH]c2c(c1C)C(=O)CC(c1ccco1)C2 (stereo unspecified),-20%
O=C1CN(C(=O)c2cccs2)c2ccccc2N1,-19%
Cc1nn(CC(O)Cn2c3c(c4ccccc42)CCN(C)C3=O)c(C)c1Br (stereo unspecified),144%
CCC(c1nnnn1C1CCCC1)N1CCN(c2ccccc2)CC1 (stereo unspecified),56%
COc1ccc(NC(=O)c2ccco2)cc1NC(=O)c1ccc(C)cc1,23%
COc1ccccc1CNc1ncncc1-c1ccccc1CN(C)C,13%
Cc1ccc(C(=O)NC2CCCCCC2)cc1N1CCCC1=O,8%
CCOC(=O)C1=C(CNCc2ccccc2Cl)NC(=O)NC1c1ccc2c(c1)OCO2 (stereo unspecified),-6%
Cc1ccc(C(=O)c2cncc(Br)c2)cc1,-7%
CCOc1ccc(NC(=O)CSC(N)=O)cc1,12%
Cc1cc(C)n2c(Br)c(CN3CC4CC(C3)c3cccc(=O)n3C4)nc2n1 (stereo unspecified),34%
CCn1c(=O)cc(SCC(=O)N2CCN(c3ccccc3OC)CC2)c2ccccc21,167%
CCOC(=O)c1c(C)[nH]c(C(=O)COc2ccc3c(c2)OCO3)c1C,21%
Cc1ccc(CNc2ccc(N3CCOCC3)cc2)s1,39%
COc1cc(CNc2cccc(F)c2)cc(Br)c1O,-13%
O=C(c1cc2c(=O)oc3ccccc3c2s1)N1CCN(c2ncccn2)CC1,7%
O=C(CN1CCN(C(=O)N2CCOCC2)CC1)Nc1ccc(Br)cc1,39%
COc1ccc(CN(Cc2nc3ccccc3c(=O)[nH]2)C(=O)NC2CCCCC2)cc1,40%
CCN(CC)S(=O)(=O)c1ccc(NC2c3ccccc3C(=O)N2CCN2CCOCC2)cc1 (stereo unspecified),106%
COc1ccc(-c2nc(-c3ccccc3OC)no2)cc1OC,145%
CCOc1ccc(-n2ccnc2SCC(=O)Nc2nnc(C)s2)cc1,13%
Cc1cccc(CNc2ccnc(-c3cccnc3)n2)c1,38%
O=C(Cn1nc(-c2ccccc2)ccc1=O)NCc1ccc2c(c1)OCO2,28%
c1csc(CNc2ncnc3ccc(-c4ccc5c(c4)OCO5)cc23)c1,-21%
COc1ccc2[nH]c(=O)c(CN(CC3CCCO3)C(=O)Nc3ccc(F)cc3)cc2c1 (stereo unspecified),53%
NS(=O)(=O)c1ccc(NC(=O)N[C@@H](Cc2ccccc2)C(=O)O)cc1,-1%
Cc1cc(=O)n(C)c(=O)n1CCCCCN1CCCC1,0%
CCN(CC)C(=O)CSc1ncnc2c(-c3cccs3)nsc12,41%
O=C(O)CC(NS(=O)(=O)c1cccc2nsnc12)c1ccc(F)cc1 (stereo unspecified),-12%
COc1ccc(N(CC(=O)N2CCCC(C)C2)S(=O)(=O)c2c(C)nn(C)c2C)cc1 (stereo unspecified),131%
Cc1ccc(Cn2ncc3c(N4CCN(c5ccccc5C)CC4)ncnc32)cc1,-3%
O=C(CSc1ccc2nnc(-c3ccncc3)n2n1)Nc1ccc2c(c1)OCCO2,-5%
O=C1C2C(C(=O)N1CC1CCCO1)C1C=CC2C12CC2 (stereo unspecified),7%
CCCCCC(=O)N(CN1C(=O)CCC1=O)c1ccccc1,23%
Cn1cc(-c2nc3cnc(Oc4ccccc4)nc3n(C3CC3)c2=O)c2ccccc21,0%
CC1(C)Cc2nc3sc4c(=O)[nH]cnc4c3cc2CS1,10%
Cc1[nH]cnc1CSCCN,-6%
COc1ccccc1NC(=O)c1oc2ccc(C)cc2c1C,-11%
Cc1cccc(NC(=O)Cn2cnc3c(cnn3-c3ccc(F)cc3)c2=O)c1C,10%
CS(=O)(=O)Nc1ccc(C(=O)NCC2CCCO2)cc1 (stereo unspecified),-2%
COCCn1c(N2CCN(c3ccc(OC)cc3)CC2)nc2c1c(=O)n(C)c(=O)n2C,84%
O=C(CSc1nc(-c2ccncc2)nn1CC(=O)N1CCCCC1)NC1CCCC1,7%

# Already shown: 6 of the compounds above.
SMILES,AmpC inh no det
Cc1[nH]cnc1CSCCN,-6%
COc1ccccc1NC(=O)c1oc2ccc(C)cc2c1C,-11%
Cc1cccc(NC(=O)Cn2cnc3c(cnn3-c3ccc(F)cc3)c2=O)c1C,10%
CS(=O)(=O)Nc1ccc(C(=O)NCC2CCCO2)cc1 (stereo unspecified),-2%
COCCn1c(N2CCN(c3ccc(OC)cc3)CC2)nc2c1c(=O)n(C)c(=O)n2C,84%
O=C(CSc1nc(-c2ccncc2)nn1CC(=O)N1CCCCC1)NC1CCCC1,7%

# Next section
SMILES,AmpC inh no det
O=C(O)C1C2C=CC(C2)C1C(=O)NC1CCS(=O)(=O)C1 (stereo unspecified),8%
O=S(=O)(c1cc(Cl)ccc1Cl)N1CCCCC1,1%
C[C@@H](C(=O)NCCc1c[nH]c2ccccc12)[C@@H]1C[C@@]1(C)[C@@H](NC(=O)OCc1ccccc1)c1ccccc1,19%
COc1ccc(N2CCN(c3nc(NC(C)(C)C)nc(N4CCCCC4)n3)CC2)cc1,33%
O=C(CN1CCOCC1)Nc1c2c(nc3ccccc13)N(Cc1ccccc1)CC2,81%
Cn1c(CNC(=O)C(C)(C)C)nc2ccccc21,-6%
CCOc1ccccc1N(CC(=O)O)S(=O)(=O)c1ccccc1,-1%
COc1ccc(C(=O)OC2C[C@H]3CC[C@@H](C2)N3C)cc1OC (stereo partly specified),-12%[12.8 µM]
CCOC(=O)N1CCC(NC(=O)C2=C(C)C(=O)OC23CCC(C)CC3)CC1 (stereo unspecified),68%
CCOC(=O)c1cc2sccc2n1CC(=O)c1ccc2c(c1)OCCO2,23%

# An excerpt; count on the stated rates, not on these rows.
